Bioassay records from PubChem.
SARS PLpro yeast: blocks SARS-CoV papain-like protease in a yeast assay. S. cerevisiae expressing SARS-CoV PLpro, growth rescue; control for the full effect not named in the record. Potency, µM (top dose mostly 32.9 µM), for the others: at the top dose activity, positive = growth rescue. 330,000 compounds, 0.19% hits; active means well fitted rising curve with a large enough effect; inconclusive means small, poorly fitted or top-dose-only effect; inactive means no such curve, though single readings can be large or run the other way; further: 0% is about no effect; nearly all actives have a fitted effect of over 55% in size; growth read by luminescence after 48 h
MARV entry inh: Marburg virus entry inhibition | Marburg virus pseudotyped entry inhibition, cell reporter; control for the full effect not named in the record; about a third of the inactives were read at about 46 µM | Potency, µM (doses to about 37.8 µM), for the others: at the highest dose activity change, negative = inhibition, hits mostly inhibitors | 300,000 compounds, 1.8% hits; active = well fitted inhibition curve with a large enough effect; inconclusive = small, poorly fitted or top-dose-only effect, or effect the other way; inactive = flat fitted curve, though single readings scatter; tested in HEK293 cells; about a fifth of its hits are not listed in these tables; further: on the % scale 0 is the no-effect control and ±100 the full control effect; luciferase read-out
RE007 growth inh: less growth of the S. pombe RE007 Vpr strain; S. pombe RE007 Vpr strain, BacTiter-Glo ATP luminescence, 24 h; control for the full effect not named in the record; Potency, µM (top dose mostly 92.2 µM), for inactives: at the top dose activity change, negative = less growth; 360,000 compounds, 0.21% hits; AID 651644; active = well fitted falling curve with a large enough effect; inconclusive = small, poorly fitted or top-dose-only effect; inactive = no such curve, though single readings can be large or run the other way;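 further: on the % scale 0 is the no-effect control and ±100 the full control effect; nearly all actives have a fitted effect of over 50% in size; the assay follows cell death caused by Vpr and the record does not say whether a fall means rescue or toxicity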
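Fission yeast strain RE007, carrying one chromosomally integrated HIV-1 vpr copy, was seeded at OD 0.01 in PMG+AL medium with 23 nL pinned compound. After 24 h at 30 °C and 99% humidity, viability was read by BacTiter-Glo luminescence.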
Cruzain inh noDet: blocks cruzain activity in detergent-free assay | P25779 | 200,000 compounds, 2.3% hits | purified cruzain, Z-FR-AMC fluorescence, no detergent | Potency, µM, inactives show max response, negative = inhibition, actives largely listed as inhibitors;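 further: plate controls were enzyme without inhibitor for no effect and buffer without enzyme for full effect; nearly all actives have a fitted effect of over 40% in size; top concentration of the series not given in the record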
Target sequence (P25779 123-467 limits assumed): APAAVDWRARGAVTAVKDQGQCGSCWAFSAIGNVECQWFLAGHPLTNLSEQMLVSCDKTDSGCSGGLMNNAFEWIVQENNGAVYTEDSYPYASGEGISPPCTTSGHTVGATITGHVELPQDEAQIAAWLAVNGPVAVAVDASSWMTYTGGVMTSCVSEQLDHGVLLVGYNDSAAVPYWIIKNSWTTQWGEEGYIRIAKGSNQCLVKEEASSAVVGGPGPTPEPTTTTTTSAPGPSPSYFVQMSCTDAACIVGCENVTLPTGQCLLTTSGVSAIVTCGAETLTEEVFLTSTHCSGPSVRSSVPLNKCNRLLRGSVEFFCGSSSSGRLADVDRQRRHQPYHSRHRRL
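Detergent-free condition (0.00005% Triton X-100) in acetate buffer pH 5.5 with DTT. 1.5 nM enzyme and compound were pre-mixed 15 min, then 2 uM Z-FR-AMC substrate added; reaction progress from fluorescence change between first and third reads (60 s).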
Cruzain Triton: inhibitors of Trypanosoma cruzi cruzain with detergent. P25779. purified cruzain, Z-FR-AMC fluorescence, 0.01% Triton. Potency, µM, for the others: max response, negative = inhibition, hits mostly inhibitors. 200,000 compounds, 0.43% hits. AID 1478;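 further: plate controls were neutral wells for no effect and buffer without enzyme for full effect; nearly all actives have a fitted effect of over 40% in size; top concentration of the series not given in the record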
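Z-FR-AMC hydrolysis (2 uM substrate) by cruzain (1.5 nM) monitored kinetically at ex 360/em 450 nm after 15 min room-temperature compound exposure; 0.01% Triton X-100, pH 5.5, 5 mM DTT.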
NS1 inh: inhibitors of influenza NS1 protein function; Potency, µM (series often up to 46.1 µM), without a hit: at the top dose activity, positive = more growth; 270,000 compounds, 0.4% hits; S. cerevisiae slowed by influenza A NS1, growth recovery by OD600; active means well fitted rising curve with a large enough effect; inconclusive means small, poorly fitted or top-dose-only effect; inactive means no such curve, though single readings can be large or run the other way; further: nearly all actives have a fitted effect of over 50% in size
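OD600 was taken as the measure of yeast growth restored by compound in an NS1-expressing S. cerevisiae strain. Cells had been washed out of glucose medium and diluted 1:100 into galactose -URA medium, pH 6.0.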
2A StopGo: lowers the luciferase signal of an FMDV 2A StopGo reporter; human cells with a luciferase reporter of 2A StopGo recoding; control for the full effect not named in the record; Potency, µM (titrated, usually from 57.9 µM), without a hit: top-dose signal change, negative = less light; 410,000 compounds, 1.2% hits; active = well fitted falling curve with a large enough effect; inconclusive = small, poorly fitted or top-dose-only effect; inactive = no such curve, though single readings can be large or run the other way; tested in HEK293T cells; further: on the % scale 0 is the no-effect control and ±100 the full control effect; nearly all actives have a fitted effect of over 45% in size; luciferase light after 4 h
Lassa entry inh: Lassa virus entry inhibition; Lassa virus pseudotype entry inhibition, cell reporter; control for the full effect not named in the record; Potency, µM (top dose mostly 37.9 µM), for inactives: at the top dose activity change, negative = inhibition, usual class: inhibitors; 300,000 compounds, 1.2% hits; AID 540256; active means well fitted inhibition curve with a large enough effect; inconclusive means small, poorly fitted or top-dose-only effect, or effect the other way; inactive means flat fitted curve, though single readings scatter; tested in HEK293 cells; further: on the % scale 0 is the no-effect control and ±100 the full control effect; nearly all actives have a fitted effect of over 50% in size; luciferase read-out
Starred values were filed as active, the others as inactive; ? = inconclusive; . = no result given; & = joins results of further samples; [ ] = dose if it differs, or a comment. Unless noted, the call rests on the fitted dose curve; in most records, active means well fitted curve in the direction sought with a large enough effect; inconclusive means small, poorly fitted or top-dose-only effect, or another doubt; inactive means no such curve, though single readings can be large; an effect the other way counts as inactive or inconclusive. Potency means the concentration at half of the fitted maximal effect.

1) CCOC(=O)c1c(NC(=O)Cn2cnc3scc(-c4ccc(C)cc4)c3c2=O)sc(C)c1C
2) CCCN1CCN(CCCNC(=O)Cn2nc(-c3ccc(C)cc3)ccc2=O)CC1
3) Cn1c(=O)c2c(nc(NCCO)n2CCc2ccccc2)n(C)c1=O
4) CCCN1CCN(C(=S)Nc2ccc(SC(F)F)cc2)CC1
5) Cc1cccc(C(=O)NNS(=O)(=O)c2ccccc2)c1O
6) CC(=O)c1sc(N/N=C\c2ccc(C)cc2)nc1C
7) CCc1ccccc1NC(=O)CN(C)C(=O)CSc1nnc(Nc2cccc(C)c2)s1
8) O=C(O)c1cnc2[nH]c3ccccc3n2c1=O
Screen / compound no.,1,2,3,4,5,6,7,8
SARS PLpro yeast,3%,3%,0%,-1%,2%,-28%,5%,0%
MARV entry inh,?,-22%,?,?,3%[46.1 µM],?,?,1%[46.1 µM]
RE007 growth inh,18%,-8%,-11%,-8%,-7%,-13%,-7%,-13%
Cruzain inh noDet,4µM*,-7%,-6%,.,.,?,24%,.
Cruzain Triton,-5.5%,-1.7%,-3.4%,.,.,-16%,-3.4%,.
NS1 inh,?,-6%,-20%,.,-1%,-7%,-2%,3%
2A StopGo,-11%,.,.,-25%,87%[activator],42%[activator],-14%,19%
Lassa entry inh,?,?,-16%,?,-1%,?,-5%,0%

9) CCCCCC(C(=O)O)C(C)CC(=O)NC1CCCCC1 (stereo not given)
10) Cc1nc(-c2ccc(C)c(S(=O)(=O)N3CCC(C(=O)NCc4ccc(F)cc4)CC3)c2)no1
11) COc1ccc(-n2nc(C(=O)NCC(=O)N3CCCC3)c3ccccc3c2=O)cc1
12) Cc1cccn2c(=O)c3cc(C(=O)NCc4ccccc4)c(=N)n(CCOCCO)c3nc12
13) COc1cc(C(=O)NNC(=O)C2CC=CCC2C(=O)O)cc(OC)c1OC (stereo not given)
14) CCc1ccc(NC(=O)C(NS(=O)(=O)c2ccc3c(c2)CCN3C(C)=O)C(C)C)cc1 (stereo not given)
15) Cc1ccc(Cn2c(C)c3cnn(CC(=O)NCCc4ccc(Cl)cc4)c(=O)c3c2C)cc1
16) Cc1ccc(C)c(CN2C(=O)c3ccccc3S(=O)c3ccc(C(=O)NCc4ccccc4Cl)cc32)c1 (stereo not given)
Screen / compound no.,9,10,11,12,13,14,15,16
SARS PLpro yeast,4%,.,-3%,.,20%,2%,.,.
MARV entry inh,-3%,.,19%[46.1 µM],4%[46.1 µM],?,.,11%[46.1 µM],?
RE007 growth inh,6%,.,-19%,.,2%,-6%,.,.
Cruzain inh noDet,14%,-3%,.,?,7%,.,-4%,?
Cruzain Triton,-0.2%,1.1%,.,?,-0.2%,.,-1.4%,1.6%
NS1 inh,?,.,7%,.,10%,-2%,.,.
2A StopGo,-15%,-22%,24%,47%[activator],11%,0%,-16%,-22%
Lassa entry inh,2%,?,.,3%[46.1 µM],?,.,0%[46.1 µM],-5%[46.1 µM]

Structural class: the entries above with two or more sulfur atoms.
1) CCOC(=O)c1c(NC(=O)Cn2cnc3scc(-c4ccc(C)cc4)c3c2=O)sc(C)c1C
4) CCCN1CCN(C(=S)Nc2ccc(SC(F)F)cc2)CC1
7) CCc1ccccc1NC(=O)CN(C)C(=O)CSc1nnc(Nc2cccc(C)c2)s1
Screen / compound no.,1,4,7
SARS PLpro yeast,3%,-1%,5%
MARV entry inh,?,?,?
RE007 growth inh,18%,-8%,-7%
Cruzain inh noDet,4µM*,.,24%
Cruzain Triton,-5.5%,.,-3.4%
NS1 inh,?,.,-2%
2A StopGo,-11%,-25%,-14%
Lassa entry inh,?,?,-5%

The list goes on:
17) CCOC(=O)c1ccccc1NC(=O)CN(c1ccccc1OCC)S(C)(=O)=O
18) COc1cccc(COCC(O)CN2CCC(C(N)=O)CC2)c1 (stereo not given)
19) Cc1ccc(CN2CCN(Cc3cnn(-c4ccc(Cl)cc4)c3)CC2CCO)o1 (stereo not given)
20) CC1=C(C(=O)Nc2ccccc2Cl)C(c2ccc(N(C)C)cc2)NC(=O)N1 (stereo not given)
21) Cc1nn(C)c(Cl)c1NC(=O)OCc1ccccc1
22) Cc1ccc(-c2nnc(SCC(=O)Nc3ccccc3N3CCOCC3)o2)cc1
23) O=C(O)c1ccc(/C=N/n2cc(-c3ccccc3)[nH]c2=S)cc1
24) O=C(CC(Sc1ccc(Br)cc1)C(=O)O)c1ccc(F)cc1 (stereo not given)
Screen / compound no.,17,18,19,20,21,22,23,24
SARS PLpro yeast,?,2%,0%,2%,4%,.,2%,-1%
MARV entry inh,?,30%[46.1 µM],?,2%,-6%,2%,.,.
RE007 growth inh,-8%,-2%,-8%,-4%,6%[3.69 µM],6%,-5%,-9%
Cruzain inh noDet,?,.,.,-5%,4%,1%,.,.
Cruzain Triton,-3.0%,.,.,-5.6%,6.0%,12%,.,.
NS1 inh,-4%,3%,0%,13%,14%,?,7%,-35%
2A StopGo,6%,-11%,-25%,6%,-25%,8%,-4%,-20%
Lassa entry inh,10%,?,-2%[46.1 µM],-5%,-2%,2%,.,.

25) COc1ccc(C2C(C(=O)Nc3cc(OC)c(OC)c(OC)c3)c3ccccc3C(=O)N2C)cc1OC (stereo not given)
26) CSc1nnc(-c2ccncc2)n1CCCN1CCCC1=O
27) CCSc1ncc(Cl)c(C(=O)Nc2ccc(S(=O)(=O)Nc3nccc(C)n3)cc2)n1
28) Cc1nc2cc(C(F)(F)F)ccc2n1C1CCN(CC(=O)NC(C)(C)C)CC1
29) Cc1ccc(C)c2[nH]c(=O)c(C(c3nnnn3Cc3ccccc3)N3CCc4ccccc4C3)cc12 (stereo not given)
30) O=C(C(=O)N1CCOCC1)c1c[nH]c2ccccc12
31) O=S(=O)(c1cccc(C(F)(F)F)c1)N1CCC(Oc2ccc(-n3cnnn3)cc2)CC1
32) Cn1cnnc1SCC(=O)Nc1ccc(OCc2ccccc2)cc1
Screen / compound no.,25,26,27,28,29,30,31,32
SARS PLpro yeast,1%,1%,.,-2%,-2%,1%,.,1%
MARV entry inh,-9%[46.1 µM],20%,?,?,?,-15%[46.1 µM],1%[46.1 µM],15%[46.1 µM]
RE007 growth inh,-6%,-6%,.,-19%,5%,5%,.,10%
Cruzain inh noDet,.,12%,1%,?,-13%,.,2%,.
Cruzain Triton,.,6.7%,-10.0%,-5.7%,-4.5%,.,-2.3%,.
NS1 inh,.,9%,.,-18%,10µM*,-2%,.,.
2A StopGo,-3%,-17%,49%[activator],-17%,12%,-8%,?,49%[activator]
Lassa entry inh,.,?,1%[46.1 µM],14%,-18%,12%[46.1 µM],27%[46.1 µM],8%

33) CC(C)CC(=O)Nc1ccc2nn(-c3ccccc3)nc2c1
34) CCOc1ccc(-n2c(=O)c3c(C)c(C)sc3n(CC(=O)NCc3ccco3)c2=O)cc1
35) Cc1cccc(C(=O)NC(=S)NNC(=O)c2cccs2)c1
36) COc1cccc(C(=O)N2CCOCC2)c1
37) Cc1ccc2sc(NC(=O)CN3C(=O)CCC3=O)nc2c1C
38) CCc1cc(C(=O)c2ccc(OC)cc2)c(NC(=O)COCC(=O)O)s1
39) O=C(CN1C(=O)CSc2ncccc21)NCCN1CCOCC1
40) Cc1ccc(OCc2nc3ccccc3n2CC(C)C)cc1
Screen / compound no.,33,34,35,36,37,38,39,40
SARS PLpro yeast,-14%,-4%,-35%,0%,3%,-4%,4%,.
MARV entry inh,?,?,1%,-11%[46.1 µM],.,.,.,-4%[46.1 µM]
RE007 growth inh,-17%,7%,-29%,10%,16%,-8%,6%,.
Cruzain inh noDet,20%,-27%,-8%,.,1%,.,-12%,4%
Cruzain Triton,-8.6%,-0.9%,-21%,.,-2.7%,.,-1.9%,-8.4%
NS1 inh,-12%,4%,-70%,.,-1%,1%,-20%,.
2A StopGo,16%,3%,-12%,6%,4%,-16%,-29%,-16%
Lassa entry inh,?,?,9%,-1%,.,.,.,26%[46.1 µM]

41) Cc1ccc([N+](=O)[O-])cc1NC(=O)c1cccnc1
42) Cc1cccc(NC(=O)c2sc3nc(N4CCOCC4)c4c(c3c2N)CC(C)(C)OC4)c1
43) CC1CCCC(C)N1C(=O)CN1CCN(c2nc(-c3ccc(F)cc3)cs2)CC1 (stereo not given)
44) Cc1ccccc1NC(=O)c1ccccc1NC(=O)c1ccccc1F
45) COC(=O)c1cc(Cl)c(NC(=O)c2ccc(F)cc2)cc1OC
46) CCCc1cc(Nc2ccccc2OCC)n2ncnc2n1
47) COc1ccc(C(=O)Nc2ccccc2C(=O)NCc2cccnc2)cc1OC
48) COc1ccc(N2CCN(C(=O)c3ccc(CS(=O)(=O)c4ccccc4C)o3)CC2)cc1
Screen / compound no.,41,42,43,44,45,46,47,48
SARS PLpro yeast,-3%,.,-6%,1%,2%,1%,0%,-1%
MARV entry inh,1%,-8%[46.1 µM],?,-1%[46.1 µM],-2%,.,5%,.
RE007 growth inh,-4%,.,2%,-11%,0%,24%,5%,7%
Cruzain inh noDet,.,26%,7%,-1%,-11%,-3%,.,.
Cruzain Triton,.,-1.9%,-2.8%,-1.7%,-3.7%,3.8%,.,.
NS1 inh,-1%,.,-49%,1%,0%,-20%,-3%,-21%
2A StopGo,-8%,23%,?,0%&6%,-4%,-13%,-16%,-9%
Lassa entry inh,8%,12%[46.1 µM],-29%,-14%&4%[46.1 µM],-10%,3%,-2%,.

49) CCc1nnc(NC(=O)Nc2ccc(Cl)cc2)s1
50) Cc1oc(-c2nc3ccccc3n2C)cc1C(=O)c1ccccc1
51) Cc1ccc(S(=O)(=O)c2nnn3c2nc(N2CCOCC2)c2ccccc23)cc1
52) CC1CCN(c2ccc3nnc(CCC(=O)NCc4ccco4)n3n2)CC1
Screen / compound no.,49,50,51,52
SARS PLpro yeast,1%,-69%,5%,0%
MARV entry inh,.,11µM*,.,.
RE007 growth inh,3%,?,-4%,19%
Cruzain inh noDet,.,?,.,.
Cruzain Triton,.,-8.4%,.,.
NS1 inh,5%,-80%,8%,2%
2A StopGo,7%,-62%,-4%,-6%
Lassa entry inh,.,2.8µM*,.,.
